# MT1-MMP act inh: blocks activation of human MT1-MMP | P50281 | HT1080 RFP-PRO-GFP cells, GFP/RFP ratio fluorescence, overnight; percent of plate control window, DMSO zero | GFP/RFP ratio change, % at 20 µM | 360,000 compounds, 0.061% hits | AID 651647;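 active = GFP/RFP ratio change of at least 30% with cell ATP level not reduced by more than half and red fluorescence within 50% of control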; also: strong numbers were not always called active
#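 Test system: HT1080 RFP-PRO-GFP cells; Benchmarks: DMSO and RFP-L50D-GFP cell wells; Timing: cells overnight before dosing, compound overnight, 37 °C, 5% CO2; Compound: one 20 µM compound dose with 1% DMSO; Read-out: GFP/RFP fluorescence ratio.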
# UUG fidelity: alters start codon recognition fidelity in yeast; 350,000 compounds, 0.13% hits; AID 602363; activity score, % at 18.7 µM; S. cerevisiae UUG-firefly luciferase reporter, luminescence/redox ratio;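 active = replicate mean at a twofold rise or more, about +100% in these data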;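 also: firefly luciferase made from a UUG start codon reports start codon fidelity; reporter light over untreated wells divided by growth signal over untreated wells; some hits fall short of that in this replicate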
# MT1-MMP act inh RFP: also measured in MT1-MMP act inh; calls as there; RFP signal change, %; measured here: RFP expression control read;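 0 = vehicle wells; hits needed this value within 50% of zero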
# The depositor's hits bear a star; & = joins results of further samples.
item	structure	MT1-MMP act inh	MT1-MMP act inh RFP	UUG fidelity
1	CC[C@]12c3[nH]c4cc(-c5ccco5)ccc4c3CCN1C(=O)[C@@H](CC(=O)NCCC1=CCCCC1)C[C@@H]2C(=O)N1CCN(C(=O)c2ccco2)CC1	4	2	3
2	CSCCC(NC(=O)COc1ccccc1)C(=O)N(C)Cc1ccc(SC)cc1 (stereo not drawn)	2	-6	-13
3	Cc1onc(-c2ccccc2)c1C(=O)OCC(=O)c1ccc(F)cc1	2	-5	3
4	O=C(COC(=O)CNC(=O)c1ccccc1)NC1CCCCC1	2	4	-9
5	CCN(C(=O)CSc1nnc(NCCOC)s1)c1c(N)n(Cc2ccccc2)c(=O)[nH]c1=O	2	0	-32
6	Cc1ccc(NC(=O)CN(C)C(=O)C(Sc2ccccc2)c2ccccc2)cc1 (stereo not drawn)	2	-2	-3
7	CCOC(=O)c1[nH]c(C)c(C(=O)OCC(=O)NC(C)c2ccc(F)cc2)c1C (stereo not drawn)	-14	-17	-2
8	O=C(C[C@H]1C/C=C\C[C@H](NC(=O)OCC2c3ccccc3-c3ccccc32)C(=O)O[C@H](c2ccccc2)CNC1=O)N[C@H](CO)Cc1ccccc1	-40	-20	-13
9	Cn1c(=O)c2c(ncn2CC(=O)OCC(=O)Nc2ccc(F)cc2F)n(C)c1=O	4	2	-14
10	O=C1C=CC(=O)N1c1ccc(-c2nc3ccccc3o2)cc1	3	8	3
11	CN(C(=O)CSc1nc2sc3c(c2c(=O)n1C)CCC3)C1CCS(=O)(=O)C1 (stereo not drawn)	-3	-7	-3
12	CCOc1ccc(CN(C)C(=O)c2ccc(S(=O)(=O)N(C)c3ccccc3OC)cc2)cc1	-3	-20	-7
13	Cc1cc(NC(=O)CN2C(=O)NC(c3ccccc3)(c3ccc(C)c(C)c3)C2=O)no1 (stereo not drawn)	5	1	15
14	Cn1nccc1-c1ccc(C(=O)NCc2ccc(Cl)cc2)c2occc12	-5	-12	-7
15	CCN(CC)c1ccc(S(=O)(=O)N2CCOCC2)cc1NC(=O)CNCc1cccc(Cl)c1	2	-3	-13
16	C[C@@H]1CN([C@H](C)CO)C(=O)CCCn2cc(nn2)CO[C@H]1CN(C)C(=O)Nc1ccc(-c2cccs2)cc1	-2	2	9&14
17	CC1CCN(C(=O)CN2C(=O)NC3(CCCCCC3)C2=O)CC1	0	0	-11
18	COc1ccc(CCNC(=O)c2cccc(S(=O)(=O)NC(C)c3ccccc3)c2)cc1 (stereo not drawn)	-3	-3	3
19	Cn1c(=O)c(=O)n(C)c2cc(S(=O)(=O)CCC(=O)Nc3ccccc3C(F)(F)F)ccc21	0	0	-7
20	COc1ccc(Cl)cc1NC(=O)CN(C)CC(=O)N1CC(=O)Nc2ccccc21	-1	-1	-6
21	CC(C)(C)c1ccccc1NC(=O)CN1C(=O)NC2(CCCCCC2)C1=O	-1	2	-1
22	CCCCN(C(=O)c1cccc(S(=O)(=O)N(C)c2ccc(C)cc2)c1)c1c(N)n(CC(C)C)c(=O)[nH]c1=O	-2	4	79
23	Cc1c(NS(=O)(=O)c2cccc(C(=O)NCc3ccccc3Cl)c2)c(=O)n(-c2ccccc2)n1C	-4	-4	-5
24	CC1CC(C)CN(S(=O)(=O)c2ccc(NC(=O)[C@@H]3CCCN3C(=O)c3cccs3)cc2)C1 (stereo partly drawn)	-3	-5	-1
25	CN(C(=O)CSc1nnnn1C)C1(C#N)CCCCC1	-6	0	-16
26	CCN(c1ccccc1)S(=O)(=O)c1ccc(OCC(=O)N2CCCC2)cc1	2	3	-13
27	Cc1cccc(C)c1NC(=O)CNC(=O)c1ccc(COc2ccccc2)o1	-1	0	-12
28	COc1ccc2[nH]c3c(c2c1)CCN1C(=O)C(CC(=O)NCc2ccco2)C[C@H](C(=O)N2CCOCC2)[C@@]31C (stereo partly drawn)	2	5	-4
29	Cc1ccc(S(=O)(=O)N(C)CC(=O)Nc2ccccc2N2CCCC2)cc1	2	-2	4
30	Cc1cc(Br)cn2c(Cc3ccsc3)c(-c3ccc(C#N)cc3)nc12	-8	5	37

# Entries by screen from the entries so far.
# Entries 6 to 17 in MT1-MMP act inh RFP, in turn: -2, -17, -20, 2, 8, -7, -20, 1, -12, -3, 2, 0
# Entries 6 to 17 in UUG fidelity, in turn: -3, -2, -13, -14, 3, -3, -7, 15, -7, -13, 9&14, -11

# New compounds follow
item	structure	MT1-MMP act inh	MT1-MMP act inh RFP	UUG fidelity
31	CCN(C[C@H]1N[C@@](Cc2ccccc2)(C(=O)OC)[C@H]2C(=O)N(C)C(=O)[C@@H]12)S(=O)(=O)c1ccc(C(C)(C)C)cc1	-2	-4	-21
32	O=C(c1cccc(S(=O)(=O)NCc2ccccc2)c1)N1CCN(c2ccccc2Cl)CC1	-1	-5	-30
33	Cc1oc2cc3oc(=O)c(CCC(=O)N4CCC(C(=O)O)(c5ccccc5)CC4)c(C)c3cc2c1C	6	3	-28
34	Cc1ccc(S(=O)(=O)N2CCN(C(=O)COC(=O)COc3ccc(Cl)cc3C)CC2)c(C)c1	-1	1	-17
35	CC(C)c1ccc(NC(=O)Nc2nc(CN)cs2)cc1	-4	-2	-17
36	O=C(Cn1cc(COc2ccccc2[N+](=O)[O-])nn1)c1ccc(O)cc1	0	-2	-3
37	C[C@@H]1CN([C@H](C)CO)C(=O)c2c(c3ccccc3n2C)-c2ccccc2CO[C@H]1CN(C)C(=O)c1cc(Cl)cc(Cl)c1	4	1	-17
38	CC1(C(=O)NS(=O)(=O)c2cccc(Cl)c2)CCN1C(=O)CC1CCCC1 (stereo not drawn)	0	7	-3
39	O=C(NCCc1ccccc1)c1cccc2c(-c3cccnc3)coc12	4	2	-9
40	CCCS(=O)(=O)NC(=O)C1(C)CCN(C(=O)c2cc3ccccc3s2)C1 (stereo not drawn)	0	6	-2
41	COc1ccc(-c2nnc(SCC(=O)NC(=O)Cc3ccccc3)n2C)cc1	0	4	-10
42	Cc1ccc(C(=O)N2CCN(C/C=C/c3ccccc3)CC2)cc1S(=O)(=O)N1CCOCC1	2	-6	-16
43	CC(C)C(=O)N1CCN(c2ccccc2NC(=O)c2ccc3c(c2)OCCO3)CC1	-9	1	-15
44	CC1=C(C(=O)N(C(C)C)C(C)C)CC(CC(=O)NCCCN(C)C)C(=O)N1CCC1=CCCCC1 (stereo not drawn)	0	4	0
45	O=C1CN(C(=O)COC(=O)/C=C/c2ccc(F)cc2)c2ccccc2N1	0	1	-10
46	O=C(O)c1ccc(CSCc2ccccc2)o1	1	1	-14
47	COc1ccccc1C(CNC(=O)CNC(=O)c1ccc(C)c(C)c1)N1CCCC1 (stereo not drawn)	3	2	-28
48	CC(C)(C)N(Cc1ccccc1)C(=O)COC(=O)CNS(=O)(=O)c1ccc2ccccc2c1	2	0	16
49	CCN(C(=O)COC(=O)CCCOc1ccc(Cl)cc1C)c1c(N)n(Cc2ccccc2)c(=O)[nH]c1=O	10	1	2
50	COc1ccc(-c2c(-c3ccc(C#N)cc3)oc(=O)c3cc(OC)c(OC)cc23)cc1	-5	-11	-13
51	O=C(COC(=O)Cc1n[nH]c(=O)c2ccccc12)Nc1ncc(Cl)cc1Cl	0	2	-12
52	CCOC(=O)C1=C[C@@H](C(C)(C)C)N(S(=O)(=O)c2ccccc2C)[C@H]1c1ccc(Cl)cc1	-2	-13	-17
53	O=C(COC(=O)/C=C/c1ccc(Cl)cc1)NC1CCCCCC1	-1	1	-17
54	O=C1CCN(Cc2ccccc2)C(=O)N1	1	3	-6
55	Cc1ccc(N(Cc2ccccc2)C(=O)c2ccc(C)c(S(=O)(=O)N3CCOCC3)c2)cc1	0	2	2
56	COc1ccc(S(=O)(=O)N2CCCCC2)cc1NC(=O)CCC(=O)N1CCC(c2ccccc2)=N1	-1	-2	-9
57	Cc1ccc(C(=O)OCC(=O)NCC2COc3ccccc3O2)cc1 (stereo not drawn)	2	5	1
58	COc1ccc(CNC(=O)C[C@H]2C[C@H](C(=O)N(C(C)C)C(C)C)[C@@]3(C)c4[nH]c5cc(-c6ccco6)ccc5c4CCN3C2=O)cc1OC	0	-13	-21
59	CC(C)n1cnc2c(NCc3ccccc3)cc(OCC3CCN(C)CC3)cc21	-31	0	-37
60	CC(C)c1cccc(C(C)C)c1NC(=O)CN(C)C1CCS(=O)(=O)C1 (stereo not drawn)	-1	1	-12

# Overlap with the part before: seven entries, followed by the next part.
item	structure	MT1-MMP act inh	MT1-MMP act inh RFP	UUG fidelity
54	O=C1CCN(Cc2ccccc2)C(=O)N1	1	3	-6
55	Cc1ccc(N(Cc2ccccc2)C(=O)c2ccc(C)c(S(=O)(=O)N3CCOCC3)c2)cc1	0	2	2
56	COc1ccc(S(=O)(=O)N2CCCCC2)cc1NC(=O)CCC(=O)N1CCC(c2ccccc2)=N1	-1	-2	-9
57	Cc1ccc(C(=O)OCC(=O)NCC2COc3ccccc3O2)cc1 (stereo not drawn)	2	5	1
58	COc1ccc(CNC(=O)C[C@H]2C[C@H](C(=O)N(C(C)C)C(C)C)[C@@]3(C)c4[nH]c5cc(-c6ccco6)ccc5c4CCN3C2=O)cc1OC	0	-13	-21
59	CC(C)n1cnc2c(NCc3ccccc3)cc(OCC3CCN(C)CC3)cc21	-31	0	-37
60	CC(C)c1cccc(C(C)C)c1NC(=O)CN(C)C1CCS(=O)(=O)C1 (stereo not drawn)	-1	1	-12
61	CC(Sc1ccc(S(=O)(=O)N2CCCC2)cn1)C(N)=O (stereo not drawn)	-2	-1	-14
62	CCOC(=O)[C@H]1[C@H]2COc3ccc(C)cc3[C@@H]2N2C(=O)CN(C)C(=O)[C@@]12C	1	2	-3
63	O=C(COC(=O)c1c[nH]c2ccccc12)NC1CCCCC1	-5	1	-9
64	CCOC(=O)[C@H]1[C@H]2COc3ccc(OC)cc3[C@H]2N2C(=O)CN(Cc3ccccc3)C(=O)[C@@]12C	6	2	3
65	Cc1cccc(NC(=O)CSCC(=O)N2CCN(C(=O)c3ccco3)CC2)c1	0	3	2
66	COc1ccc(C(=O)COC(=O)c2sc(C)nc2C)cc1Cl	-1	-12	-10
67	O=C(CN1CCN(C(=O)CNC(=O)c2ccc3c(c2)OCO3)CC1)Nc1ccccc1Cl	0	-5	1
68	O=C(COC(=O)C1(c2ccccc2F)CCCC1)N1CCNC1=O	0	2	-12
69	Cc1ccc(S(=O)(=O)N2[C@@H](c3ccc(Cl)c(Cl)c3)C(C(=O)O)=C[C@H]2C(C)(C)C)cc1	2	0	-14
70	OC(c1cccc(Cl)c1)c1ncc(-c2cccc(C(F)(F)F)c2)[nH]1 (stereo not drawn)	6	4	-7
71	CCCCn1c(SCC(=O)c2c(N)n(C3CC3)c(=O)[nH]c2=O)nc2cc(S(N)(=O)=O)ccc21	-4	3	-2
72	CCCCNC(=O)c1ccccc1SCC(=O)NC1CCCCCCC1	-1	-11	-6
73	CN(CC(=O)Nc1ccccc1Cl)C(=O)c1cc(C2CC2)nn1-c1ccccc1	1	2	-22
74	Clc1cccc(-c2nc3ccc(Br)cn3c2Cc2ccsc2)c1	-2	4	13
75	CCCn1c(SCC(=O)Nc2cc(S(=O)(=O)N3CCCCC3)ccc2C)n[nH]c1=O	3	-9	-12
76	COc1cc(C(C)=O)cc(OC)c1O	5	5	4
77	O=C1NCC(Nc2ccccc2Cl)C(=O)N1 (stereo not drawn)	2	7	-17
78	COCCN(C(=O)c1cc2c(s1)CCC2)c1c(N)n(CC(C)C)c(=O)[nH]c1=O	0	1	-3
79	C[C@H](NS(=O)(=O)c1ccc2c(c1)OCCCO2)C(=O)N1CCN(c2ccc(F)cc2)CC1	1	-6	-35
80	N#CCCN(C(=O)COC(=O)CCc1nc2ccccc2c(=O)[nH]1)c1ccccc1F	-3	2	2
81	Cc1ccc(-c2nn3c(-c4ccccc4)nnc3o2)cc1	-5	1	-17
82	O=C(COC(=O)/C=C/c1ccccc1)NC1CCS(=O)(=O)C1 (stereo not drawn)	-1	-1	-8

# Structural class: the entries above containing a CF3 group.
item	structure	MT1-MMP act inh	MT1-MMP act inh RFP	UUG fidelity
19	Cn1c(=O)c(=O)n(C)c2cc(S(=O)(=O)CCC(=O)Nc3ccccc3C(F)(F)F)ccc21	0	0	-7
70	OC(c1cccc(Cl)c1)c1ncc(-c2cccc(C(F)(F)F)c2)[nH]1 (stereo not drawn)	6	4	-7

# 3 compounds already listed, ordered by their value in UUG fidelity, high to low.
item	structure	MT1-MMP act inh	MT1-MMP act inh RFP	UUG fidelity
49	CCN(C(=O)COC(=O)CCCOc1ccc(Cl)cc1C)c1c(N)n(Cc2ccccc2)c(=O)[nH]c1=O	10	1	2
82	O=C(COC(=O)/C=C/c1ccccc1)NC1CCS(=O)(=O)C1 (stereo not drawn)	-1	-1	-8
42	Cc1ccc(C(=O)N2CCN(C/C=C/c3ccccc3)CC2)cc1S(=O)(=O)N1CCOCC1	2	-6	-16

# Some of the compounds tested, so the mix of outcomes need not match the whole.
